# From PubChem BioAssay
# Sfp PPTase inh: inhibitors of Bacillus subtilis Sfp phosphopantetheinyl transferase; Q9F4F7; Biochemical Sfp PPTase activity, qHTS; Potency, µM, without a hit: max response, negative = inhibition, hits mostly inhibitors; hit rate 3.5% among 310,000; AID 1490; active means well fitted inhibition curve with a large enough effect; inconclusive means small, poorly fitted or top-dose-only effect, or another doubt; inactive means no such curve, though single readings can be large or run the other way;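 further: the enzyme is Sfp with the accession as filed and its product quenches rhodamine fluorescence; potency means the concentration at half of the fitted maximal effect; 0% = enzyme reaction without inhibitor and -100% = no enzyme wells; top concentration of the series not given in the record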
#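 Step 1, compound plus 15 nM Sfp-PPTase, 15 min, room temperature. Step 2, add rhodamine-CoA (5 uM) and BHQ-2-YbbR (12.5 uM). Step 3, read 525/598 nm fluorescence at 0 and 30 min.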
# TRPV1 PAM: potentiators of human vanilloid receptor 1 (TRPV1). potentiation, % at 8.33 µM. TRPV1-expressing cells, Fluo-8 calcium influx, capsaicin EC20 potentiation; host cell line not named in the record; control for the full effect not named in the record. AID 540277. hit rate 0.02% among 320,000. Q8NER1; active means potentiation above 80%; inconclusive means 30% to 80%; inactive means below 30%; further: 0% is about no effect
# Target sequence (Q8NER1 whole entry, looked up): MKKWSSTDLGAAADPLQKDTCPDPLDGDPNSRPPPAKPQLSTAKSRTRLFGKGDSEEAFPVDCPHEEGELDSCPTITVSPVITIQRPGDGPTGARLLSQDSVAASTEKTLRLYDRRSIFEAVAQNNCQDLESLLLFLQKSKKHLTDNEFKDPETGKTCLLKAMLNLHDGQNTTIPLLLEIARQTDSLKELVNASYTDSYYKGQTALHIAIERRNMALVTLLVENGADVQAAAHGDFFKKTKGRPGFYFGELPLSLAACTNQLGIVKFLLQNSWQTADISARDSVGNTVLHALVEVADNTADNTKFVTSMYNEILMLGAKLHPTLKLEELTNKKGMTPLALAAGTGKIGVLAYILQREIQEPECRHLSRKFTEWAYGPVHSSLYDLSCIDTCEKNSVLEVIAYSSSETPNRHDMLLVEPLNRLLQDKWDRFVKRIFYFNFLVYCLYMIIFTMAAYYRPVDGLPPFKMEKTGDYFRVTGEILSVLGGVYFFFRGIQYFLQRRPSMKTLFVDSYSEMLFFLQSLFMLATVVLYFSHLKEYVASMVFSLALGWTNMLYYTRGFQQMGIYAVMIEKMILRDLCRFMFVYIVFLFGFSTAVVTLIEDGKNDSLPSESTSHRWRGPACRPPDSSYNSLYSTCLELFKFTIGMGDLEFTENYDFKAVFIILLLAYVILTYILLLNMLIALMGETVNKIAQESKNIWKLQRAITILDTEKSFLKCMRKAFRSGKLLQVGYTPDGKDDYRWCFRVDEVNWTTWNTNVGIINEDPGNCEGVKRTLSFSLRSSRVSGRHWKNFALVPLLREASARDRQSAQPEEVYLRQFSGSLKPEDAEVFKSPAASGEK
#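 Fluo-8 calcium influx in TRPV1-expressing cells, kinetic read (ex 480/em 520 nm). Compound added and read 3 min for agonist activity, followed by capsaicin at EC20 final and 2 min further read for enhancement.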
# gsp antag: gsp mutant antagonism. hit rate 0.4% among 340,000. gsp-mutant cells, cAMP HTRF, 30 min; control for the full effect not named in the record. Potency, µM (titrated, usually from 76.9 µM), inactives show at the highest dose activity change, negative = inhibition, most hits filed as inhibitors; active = falling curve of any shape with a large fitted effect; inconclusive = falling curve, mostly with a smaller effect; inactive = flat or rising curve; cell line not stated here;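 further: intracellular cAMP measured with PDE inhibitor Ro 20-1724 present during compound exposure; potency means the concentration at half of the fitted maximal effect; on the % scale 0 is the no-effect control and ±100 the full control effect; nearly all actives have a fitted effect of over 65% in size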
#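 Cells in G418 medium, seeded 16-24 h, 37C; buffer exchange to DPBS + 1 mM CaCl2, 0.5 mM MgCl2, 0.05% BSA; cpds in DMSO + […] (300 uM stock), 30 min 37C; HTRF cAMP detection.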
# gsp agonist: gsp mutant agonism; gsp mutant cells, cAMP HTRF, 30 min; control for the full effect not named in the record; Potency, µM (doses to about 76.9 µM), without a hit: at the highest dose activation (cAMP increase), usual class: activators; hit rate 0.13% among 340,000; AID 624287; active = well fitted activation curve with a large enough effect; inconclusive = small, poorly fitted or top-dose-only effect, or another doubt; inactive = no such curve, though single readings can be large or run the other way; cell line not stated here;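 further: phosphodiesterase inhibitor Ro 20-1724 added with compounds to block cAMP breakdown; potency means the concentration at half of the fitted maximal effect; nearly all actives have a fitted effect of over 60% in size; about a fifth of the inactives were tested at one dose only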
#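 Cells stably selected in G418 were plated at 2000/well, grown 16-24 hr, then given compounds in DMSO with the PDE inhibitor […] (300 uM solution added) for 30 min at 37C; cAMP was read by HTRF.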
# ClpP mod: qHTS Assay for Activators of ClpP; hit rate 1.9% among 340,000; purified B. subtilis ClpP, FRET peptide cleavage, 20 min; ATP-dependent Clp protease proteolytic subunit (Bacillus subtilis (strain 168)), P80244; Potency, µM (top dose mostly 57.5 µM), for the others: at the top dose activity change, negative = active; active = well fitted falling curve with a large enough effect; inconclusive = small, poorly fitted or top-dose-only effect; inactive = no such curve, though single readings can be large or run the other way; further: potency means the concentration at half of the fitted maximal effect; the source files actives as falling curves though it sought activators and does not explain the sign; nearly all actives have a fitted effect of over 65% in size; many hits overshoot -100%
# Target sequence (P80244 whole entry, looked up): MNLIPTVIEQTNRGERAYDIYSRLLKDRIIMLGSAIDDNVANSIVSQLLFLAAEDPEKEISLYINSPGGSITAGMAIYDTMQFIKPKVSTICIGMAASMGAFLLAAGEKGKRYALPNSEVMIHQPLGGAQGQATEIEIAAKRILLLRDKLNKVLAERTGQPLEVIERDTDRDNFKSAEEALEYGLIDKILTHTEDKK
#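 Buffer: 100 mM Tris/HCl pH8, 100 mM KCl, 0.05% low protease BSA, 2.5% glycerol, 0.01% Tween-20. ClpP 10 microg/mL final; 20 min RT; delta FRET normalized to ADEP and DMSO controls.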
# CtBP-E1A inh: blocks the CtBP interaction with E1A; hit rate 0.49% among 340,000; activity change, % (concentration not given with the values); AlphaScreen GST-E1A/His-CtBP binding, 1536-well; stronger effect = lower value; control for the full effect not named in the record; in the data active means activity change below about -65%; inconclusive means about -30% to -65%; inactive means above about -30%; further: on the % scale 0 is the no-effect control and ±100 the full control effect
#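 Steps: dispense buffer (Tris pH 8.0, NaCl 300 mM, TCEP 1 mM, BSA, Tween 20); add 5X protein mix (GST-E1A, His-CtBP, 125 nM each); pin 23 nL compound; 2 h at 37 °C, dark; add 5X beads (50 ug/mL); 1 h; read.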
# Menin MLL FP FL: menin-MLL binding inhibition, fluorescein peptide; 290,000 tested, under 10 active; Fluorescence polarization, fluorescein-MLL peptide displacement from menin; FP activity change, % at 61.4 µM; inconclusive = falling polarisation curve, or a change in total fluorescence; inactive = total fluorescence flat and polarisation flat or rising; no compound was filed as active; the % refers to the polarisation; negative = inhibition;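 further: % of control where 0% means no effect; inhibitors lower the polarisation; unlabelled MLL peptide was the positive control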
# * marks the source's active call; other numbers are inactive results; u = inconclusive; x = no result given; & = joins results of further samples; [ ] = remark or other dose. Not a hit list. Share with any hit: about 5.3%.
SMILES,Sfp PPTase inh,TRPV1 PAM,gsp antag,gsp agonist,ClpP mod,CtBP-E1A inh,Menin MLL FP FL
COc1ccc(S(=O)(=O)N(C)CC(=O)N2CCCCC2)cc1Cl,17%,-1,5%,16%,0.6%,2,1.5
O=C(O)c1sccc1OCc1ccccc1,0%,5,-1%,-2%[15.4 µM],x,2,-0.5
CC(C)C(=O)Nc1nnc(CCN2CCOCC2)s1,-5%,7,10%,-55%[inhibitor],-2.2%,-1,5.7
COCc1cc(N2CCOCC2)nc(SCc2ccc(Cl)cc2)n1,-11%,2,-2%,4%,x,19,8.6
COc1ccc(C(=S)N2CCOCC2)cc1OC(=O)c1ccc([N+](=O)[O-])cc1,50µM*,-12,11%,30%,x,-1,-0.5
CCOC(=O)N1CCN(C(=O)c2ccc3c(Cl)c4c(nc3c2)CCCC4)CC1,-4%,-19,-25%,u,-4.6%,0,x
O=C(OCc1cccc2ccccc12)C1CC(=O)N(c2ccccc2)C1 (stereo not given),-6%,5,-24%,1%,0.7%,9,-3.2
O=C(NCc1ccccc1)/C(=C\c1ccc(O)cc1)NC(=O)c1ccco1,7%,-4,-6%,u,-2.8%,10,x
O=C(CSc1ncnc2c1oc1ccccc12)OCc1ccccc1,2%,-1,-9%,-13%,-6.3%,54,4.6
O=C(NCc1ccco1)c1cc(-c2cccc(Cl)c2)on1,-19%,-6,14%,17%,-0.3%,1,1.9
Cc1ccc(C(=O)NC(=S)NCc2ccccc2)cc1Br,x,x,2%,-3%,0.3%,1,x
O=C(Nc1nnc(CCN2CCCCC2)s1)C1CCCCC1,14%,-24,11%,-5%,0.3%,5,9.8
CNC(=O)C(C)Sc1ccc(S(=O)(=O)N2CCOCC2)cn1 (stereo not given),x,3,13%,7%,0.6%,15,x
Cc1cc2c(cc1S(=O)(=O)CCC(=O)NCc1ccccc1)OCC(=O)N2,18%,5,7%,-15%,-1.0%&0.1%,-7,-0.9
COc1ccc(C(=O)NC(=S)Nc2ccc(CN3CCCCC3)cc2)cc1Cl,10%,u,15%,-2%[15.4 µM],1.2%,9,0.3
COCCCNCC#CCOc1ccc(OC)cc1,-29%,-1,1%,14%[15.4 µM],x,-4,1.2
Cc1c(C)n2c(SCC(=O)N3CCCC3)nnc2[nH]c1=O,x,5,8%,24%[15.4 µM],x,3,x
Cc1cccnc1NC(=O)Nc1cccs1,-14%,0,1%,-83%[inhibitor],-0.8%,-5,4.4
C=CCNC(=O)c1c(CS(=O)(=O)c2ccccc2)noc1C(=O)NCc1ccccc1,x,28,3%,x,0.4%,2,x
O=C(CCNc1ccc(F)c(Cl)c1)c1ccco1,11%,-5,-2%,4%,-2.1%,-19,-0.8
C=CCc1cc(Cl)ccc1OCCOCCN(C)C,-23%,22,12%,3%[15.4 µM],x,-2,-3.9
CCOC(=O)c1cc(S(=O)(=O)N2CCN(Cc3ccccc3)CC2)cn1C,8%,-5,3%,-29%,-0.2%,1,-7.1
COC(=O)c1ccc(COn2c(=O)c(C)[n+]([O-])c3ccccc32)cc1,18%,2,-8%,4%,-6.4%,-4,1.9
CCc1ccc(CN2CCC(n3nccc3NC(=O)c3cccc(F)c3)CC2)cc1,26%,4,-6%,-37%[inhibitor],-1.0%,6,x
Cc1ccc(NC(=O)c2ccc(Cl)c(S(=O)(=O)NCC3CCCO3)c2)c(O)c1 (stereo not given),-5%,-12,-4%,-5%,-0.7%,-1,x
CC1=CC(=C(C#N)c2nc3ccccc3s2)C=C(C)N1c1ccc(F)cc1F,15%,14,-7%,17%[15.4 µM],-2.5%,-9,u
Cn1nc(-c2ccc(N3CCN(CCO)CC3)c([N+](=O)[O-])c2)c2ccccc2c1=O,9%,4,4%,-31%[inhibitor],x,-16,1.1
COC(=O)C(NC(=O)c1ccc(C)cc1)(Nc1cccc(C)n1)C(F)(F)F (stereo not given),9%,-14,-1%,-41%[inhibitor],-3.0%,2,6.7
Cc1cc(C)c2c(N)c(C(=O)c3ccc(Br)cc3)oc2n1,1%,-12,u,-28%,x,5,-1.2
Cc1cc(C(=O)C(C)OC(=O)c2ccc(NC(=O)CC#N)cc2)c(C)n1-c1ccc(OC(F)F)cc1 (stereo not given),x,4,-5%,4%,-14%,-9,x

# One compound at a time (already shown).
# CCc1ccc(CN2CCC(n3nccc3NC(=O)c3cccc(F)c3)CC2)cc1 as listed: Sfp PPTase inh: 26%; TRPV1 PAM: 4; gsp antag: -6%; gsp agonist: -37%[inhibitor]; ClpP mod: -1.0%; CtBP-E1A inh: 6; Menin MLL FP FL: x
# C=CCc1cc(Cl)ccc1OCCOCCN(C)C as listed: Sfp PPTase inh: -23%; TRPV1 PAM: 22; gsp antag: 12%; gsp agonist: 3%[15.4 µM]; ClpP mod: x; CtBP-E1A inh: -2; Menin MLL FP FL: -3.9
# Cn1nc(-c2ccc(N3CCN(CCO)CC3)c([N+](=O)[O-])c2)c2ccccc2c1=O as listed: Sfp PPTase inh: 9%; TRPV1 PAM: 4; gsp antag: 4%; gsp agonist: -31%[inhibitor]; ClpP mod: x; CtBP-E1A inh: -16; Menin MLL FP FL: 1.1

# Remaining list, next part:
SMILES,Sfp PPTase inh,TRPV1 PAM,gsp antag,gsp agonist,ClpP mod,CtBP-E1A inh,Menin MLL FP FL
CCC(=O)N(CCc1ccccc1)Cc1cc2cc(C)ccc2[nH]c1=O,28%,-26,-5%,12%,-24%,-5,1.6
O=c1[nH]snc1N1CCOCC1,14%,2,3%,-24%,x,13,-4.8
CCOC(=O)CSc1ncnc2c(C(=O)OCC)c3n(c12)CCC3,7%,7,3%,-30%[inhibitor],-0.3%,x,3.3
COc1cccc(C2NC(c3cccc(OC)c3O)C(C)C(=O)C2C)c1O (stereo not given),-22%,-7,-23%,25%,0.5%,3,4.7
Cc1cccc(-c2c3c(=O)n(C)c(=O)n(C)c3cn2C(C)C)c1,-1%,-17,11%,16%,-26%,-8,3.2
O=C(c1ccc(-c2ccccc2)cc1)c1ccccc1C(=O)N1CCOCC1,-5%,0,-7%,-49%[inhibitor],0.4%,1,2.1
COCCNC(=O)c1sc2nc(-c3ccccc3)cn2c1C,13%,x,-4%,-12%,-4.3%,-18,-0.9
COc1cccc(CN2CCC(C(=O)Nc3ccc(Oc4cccnc4)cc3)CC2)c1,12%,-10,13%,2%,1.1%,-3,-0.1
CCOc1ccc(S(=O)(=O)n2c([N+](=O)[O-])cnc2C)c(C)c1C,10%,-2,9%,u,0.5%,7,1.7
O=C(NCC1CC1)C1(S(=O)(=O)c2ccccc2)CC=CC1,4%,17,2%,24%,0.3%,8,0.0
COc1cccc(NC(=S)NC(=O)c2c(Cl)c(C)nn2C)c1,u,u,25%,-15%,-1.6%,-18,-2.3
Cc1cc(OCCN2CCCC2)ccc1[N+](=O)[O-],-6%,9,2%,1%,1.2%,-1,5.6
CCOC(=O)C1CCN(C(=O)CC(C)S(=O)(=O)c2ccc3c(c2)NC(=O)CO3)CC1 (stereo not given),9%,-16,2%,30%,-0.5%,6,x
CC1=C[C@@H](C)[C@@H](c2ccccc2)OC1=O,4%,x,7%,x,-1.7%,2,2.3
Cc1ccc(NC(=O)c2ccc3c(=O)n4c(nc3c2)CCC4)cc1F,x,17,-14%,30%,-1.4%,-16,x

# Reformatted bar-delimited: two of the compounds above.
molecule | Sfp PPTase inh | TRPV1 PAM | gsp antag | gsp agonist | ClpP mod | CtBP-E1A inh | Menin MLL FP FL
Cc1cccc(-c2c3c(=O)n(C)c(=O)n(C)c3cn2C(C)C)c1 | -1% | -17 | 11% | 16% | -26% | -8 | 3.2
O=C(c1ccc(-c2ccccc2)cc1)c1ccccc1C(=O)N1CCOCC1 | -5% | 0 | -7% | -49%[inhibitor] | 0.4% | 1 | 2.1

# Next part.
SMILES,Sfp PPTase inh,TRPV1 PAM,gsp antag,gsp agonist,ClpP mod,CtBP-E1A inh,Menin MLL FP FL
COC(=O)CCNC(=O)c1ccc2[nH]c(C)c(C)c2c1,22%,3,-8%,18%,x,-2,-1.0
Cc1c(N)cccc1-n1cccc1,13%,0,21%,-6%[15.4 µM],x,0,1.5
Cc1ccc(C(=O)Cc2ccccc2)cc1,x,x,2%,-18%,x,61,x
CCN(CC)CCCN1C(=O)C(=O)/C(=C(/O)c2ccc3c(c2)CC(C)O3)C1c1cccnc1 (stereo not given),21%,12,x,x,x,x,0.0
O=S(=O)(/N=C(/Nc1ccccc1)c1ccccc1O)c1ccccc1,-6%,1,-6%,12%,-3.4%,-19,-0.2
CC(NC(=O)CNC(=O)OCc1ccccc1)C(=O)N1CC(O)CC1C(=O)OCc1ccccc1 (stereo not given),1%,-1,9%,7%,-1.0%,0,-1.8
CCN(C[C@H]1N[C@@](CC)(C(=O)OC)[C@H]2C(=O)N(C)C(=O)[C@@H]12)C(=O)Nc1ccc(Cl)cc1,x,x,-3%,x,1.4%,4,x
CS(=O)(=O)NCCSc1cc(C(F)(F)F)nc2ccccc12,-3%,-5,22%,23%[15.4 µM],x,0,0.2
CC(C)(C)C1=C(C#N)C(c2cc3c(cc2Br)OCO3)C(C#N)=C(N)O1 (stereo not given),0%,13,5%,-1%,0.7%,-1,5.8
COc1ccccc1NS(=O)(=O)c1ccc(/C=C/C(=O)N2CCN(C(C)=O)CC2)cc1,x,1,-6%,u,1.1%,-7,x
CCOC(=O)N(C)c1ccc(C(O)(C(F)(F)F)C(F)(F)F)cc1,18%,-12,5%,u,32µM*,-3,5.3
COc1ccc(N2CCN(CC(O)COCCOc3ccc(Br)cc3)CC2)cc1 (stereo not given),-11%,-7,22%,15%,2.2%,-1,0.2
CCc1noc(C)c1C(=O)OCC(=O)N(CC)c1c(N)n(Cc2ccccc2)c(=O)[nH]c1=O,x,-3,1%,-5%,0.5%,6,x
COc1cccc(C(=O)Nn2c(-c3cccs3)nc3ccccc3c2=O)c1OC,u,-5,-23%,-8%[15.4 µM],x,-5,1.7
COc1ccc(CN(Cc2ccco2)S(=O)(=O)c2ccc(S(=O)(=O)N3CCCC3)cc2)cc1,12%,6,2%,24%,-0.1%,5,2.8
CC[N+](CC)(CC)CCC(O)(c1ccccc1)C1CCCCC1 (stereo not given),x,-3,-7%,x,-2.5%,-24,x
